Ecoli rRNA inh = selective bacterial rRNA inhibition in E. coli; 1.6% of 350,000 active; GFP signal change (wild-type ribosome), % (test concentration not listed); E. coli WT GFP vs humanized-ribosome RFP mutants, fluorescence, 24 h; active compounds read low; DMSO median 0, no signal -100;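 active = significant combined selectivity score with lowered wild-type GFP, culture density cut under 30%, mutant RFP and density less affected; inactive = any of these conditions unmet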; note: one replicate is shown; some compounds called inactive have numbers as strong as hits
T cruzi inh = blocks replication of Trypanosoma cruzi; T. cruzi beta-gal in NIH3T3, luminescence, 90 h; inhibition, % (test concentration not listed); 1.4% of 300,000 active;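 active = mean inhibition across valid replicates above about 55%, limit read from the data; inconclusive = mean below that limit but half or more replicates reach it; inactive = mean below it, under half of replicates reach it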;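 note: signal also drops with host cell toxicity which is not excluded here; 0% = plate median of DMSO wells and 100% = zero luminescence signal; higher percent means less beta-gal luminescence so fewer parasites; stock transfer was 50 nL into about 50 µL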
LANA-H2B inh = blocks KSHV LANA binding to histone H2A/H2B. cell-free LANA-H2A/H2B peptide, fluorescence polarization. inhibition, % (concentration not given with the values). 0.6% of 320,000 active. AID 2629; in the data active = inhibition mostly above about 10%, no sharp cut-off; inactive = mostly below about 6.7%;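 note: stock transfer was 7.5 nL into about 10 µL; 0% = median of vehicle wells and 100% = median of positive control wells; one replicate is shown; the record names a cut of 25% in any replicate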
Beta cell apopt = blocks beta cell apoptosis; INS-1E cytokine-induced death, ATP luminescence, 48 h; percent of positive-control rescue, neutral wells zero; protection from apoptosis, % (no concentration beside the values); 0.8% of 300,000 active;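 active = all replicates at 75% or more, or half of them and the mean; inconclusive = half reach 75% but not the mean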;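 note: 0% = cytokine-treated negative control wells and 100% = positive control rescue; higher means more ATP so stronger rescue from cytokine killing; wells of about 40 µL received 100 nL stock; the first replicate is given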
ALR H2O2 inh = inhibitors of human sulfhydryl oxidase ALR. purified ALR, DTT oxidation, H2O2 HRP-luminol luminescence. inhibition, % (concentration not given with the values). 3.8% of 290,000 active;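 active = mean and each replicate at 75% or more; inconclusive = only one of the two met; inactive = neither met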;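 note: stock transfer was 7.5 nL into about 7.5 µL; 0% = neutral wells and 100% = wells with inactivated enzyme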
Target sequence (P55789 whole entry, looked up): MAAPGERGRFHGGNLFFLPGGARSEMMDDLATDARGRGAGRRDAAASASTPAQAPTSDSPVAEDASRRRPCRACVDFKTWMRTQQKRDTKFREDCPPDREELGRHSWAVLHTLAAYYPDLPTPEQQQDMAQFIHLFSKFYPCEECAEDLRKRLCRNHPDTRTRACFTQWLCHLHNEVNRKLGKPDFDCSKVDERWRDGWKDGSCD
A1 inh = inhibitors of the anti-apoptotic protein A1, read as caspase activation; 0.066% of 330,000 active; MEF A1-2A-BIM cells, Caspase-Glo 3/7 luminescence, 3 h; percent of clofoctol response, vehicle zero; caspase activation, % (concentration not given with the values);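 active = over half of replicate activation scores above 10%, or exactly half above 10 with the replicate mean above 10; inconclusive = replicate mean below 10 yet half the replicates above 10; inactive = over half of replicates below 10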;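 note: wells of about 30 µL received 50 nL stock; many hits fall short of the cut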
B2AR ag = activates human beta-2 adrenergic receptor causing internalization; P07550; Am2.2-beta2AR cells, FAP receptor internalization, flow cytometry; reference of the scale not given here; response, % (test concentration not listed); 0.43% of 340,000 active;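 active = response above a set limit, near 3 SD of response in nonfluorescent compounds, cut at about 42% in these data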;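 note: stock transfer was 100 nL into about 11 µL; a reference agonist was the positive control; negative values mostly stem from fluorescent compounds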
Target sequence (P07550 whole entry, looked up): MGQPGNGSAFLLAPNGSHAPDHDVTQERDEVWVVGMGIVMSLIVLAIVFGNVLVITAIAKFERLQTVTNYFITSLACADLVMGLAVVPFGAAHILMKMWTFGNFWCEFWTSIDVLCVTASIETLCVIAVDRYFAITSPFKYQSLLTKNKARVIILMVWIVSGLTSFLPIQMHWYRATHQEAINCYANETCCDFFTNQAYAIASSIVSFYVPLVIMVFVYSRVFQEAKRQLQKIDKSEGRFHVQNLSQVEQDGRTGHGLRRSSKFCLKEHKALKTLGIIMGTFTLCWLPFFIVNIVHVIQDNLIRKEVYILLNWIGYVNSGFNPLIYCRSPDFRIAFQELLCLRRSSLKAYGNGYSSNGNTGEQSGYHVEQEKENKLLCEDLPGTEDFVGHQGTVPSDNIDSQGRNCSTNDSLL
Calb FLC = affects C. albicans growth with fluconazole; 0.57% of 300,000 active; growth inhibition, % (test concentration not listed); C. albicans CaCi-2 (fluconazole-resistant clinical isolate) + fluconazole, Alamar Blue growth, 48 h; AID 1979;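 active = most replicates above 75%; inconclusive = exactly half above 75%; inactive = most below 75%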;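 note: all wells also contain fluconazole at 8 µg/ml as a sub-toxic cotreatment; 0% = median of DMSO wells and 100% = median of geldanamycin control wells; wells of about 8 µL received 7.5 nL stock; the first replicate is given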
Ecoli rRNA inh OD600 = recorded beside Ecoli rRNA inh, whose call it bears; OD600 change, %; measured here: OD600 growth;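 optical density of the mix in the first replicate; 0 = DMSO median and -100 = no signal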
Ecoli rRNA inh RFP = second read-out of Ecoli rRNA inh, no call of its own (marks repeat the call); RFP signal change, %; measured here: RFP humanized mutant strains;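 first replicate; 0 = DMSO median and -100 = no signal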
Numbers without * were called inactive; & = joins results of further samples. An excerpt; rates above refer to the full screens.

What do the screens show for `COc1ccc(OCCN2C(=O)NC3(CCc4ccccc4C3)C2=O)cc1` (centres undefined)?
Ecoli rRNA inh: -8; T cruzi inh: -13; LANA-H2B inh: -1.6; Beta cell apopt: -8; ALR H2O2 inh: -4; A1 inh: 0.1; B2AR ag: 9; Calb FLC: 21; Ecoli rRNA inh OD600: -8; Ecoli rRNA inh RFP: -0.8

Results for CCN1CCCC1CNS(=O)(=O)c1ccc(Br)cc1 (centres undefined) ?
Ecoli rRNA inh: 20; T cruzi inh: 6; LANA-H2B inh: -2.9; Beta cell apopt: -5; ALR H2O2 inh: -185; A1 inh: 0.0; B2AR ag: -10; Ecoli rRNA inh OD600: 11; Ecoli rRNA inh RFP: 2.2

How did CCc1ccc(N2CC(C(=O)Nc3nc4ccc(S(C)(=O)=O)cc4s3)CC2=O)cc1 (centres undefined) do in these assays?
Ecoli rRNA inh: -11; T cruzi inh: -6; LANA-H2B inh: 5.7; Beta cell apopt: 6; ALR H2O2 inh: -10; A1 inh: 0.0; B2AR ag: -7; Calb FLC: -4; Ecoli rRNA inh OD600: -10; Ecoli rRNA inh RFP: 2.2

What do the screens show for `COCCNC(=S)N/N=C(\C)c1ccccc1O`?
T cruzi inh: 17; LANA-H2B inh: 3.8; Beta cell apopt: 17; ALR H2O2 inh: 11; A1 inh: -0.8; B2AR ag: -11; Calb FLC: -8

How did COc1ccc(CN2CCn3ncc(C(=O)Nc4ccccc4)c3C2=O)cc1 do in these assays?
T cruzi inh: 10; LANA-H2B inh: 1.2; Beta cell apopt: -2; A1 inh: 0.6; B2AR ag: -1; Calb FLC: 13

What do the screens show for `O=C(COc1ccccc1)NN1C(=O)CSC1=S`?
Ecoli rRNA inh: 8; T cruzi inh: -5; LANA-H2B inh: 2.1; Beta cell apopt: -1; ALR H2O2 inh: 34; A1 inh: 1.1; B2AR ag: 1; Calb FLC: 11; Ecoli rRNA inh OD600: 1; Ecoli rRNA inh RFP: 11

How did Cc1ccc(S(=O)(=O)N(C)C[C@@H]2Oc3ccc(NS(C)(=O)=O)cc3CC(=O)N([C@H](C)CO)C[C@@H]2C)cc1 do in these assays?
Ecoli rRNA inh: 2&3; LANA-H2B inh: -3.5; Beta cell apopt: 5; ALR H2O2 inh: 8; A1 inh: 0.8; B2AR ag: -8; Ecoli rRNA inh OD600: 2&-5; Ecoli rRNA inh RFP: 5.6&13

Results for O=C(Nc1cccc(S(=O)(=O)N2CCCCC2)c1)c1cccs1 ?
Ecoli rRNA inh: -7; T cruzi inh: 1; LANA-H2B inh: -3.8; Beta cell apopt: 3; ALR H2O2 inh: -2; A1 inh: -0.8; B2AR ag: -9; Calb FLC: 1; Ecoli rRNA inh OD600: -26; Ecoli rRNA inh RFP: -0.4

Results for Cn1cc(C=O)c2cc(S(=O)(=O)N3CCOCC3)ccc21 ?
Ecoli rRNA inh: 6; T cruzi inh: -5; LANA-H2B inh: -5.2; Beta cell apopt: -3; ALR H2O2 inh: -3; A1 inh: 0.1; B2AR ag: -5; Calb FLC: 20; Ecoli rRNA inh OD600: 8; Ecoli rRNA inh RFP: 1.8

How did CCOC(=O)c1c(C)c(C(=O)N2CCN(c3cccc(Cl)c3)CC2)c(C)n1C do in these assays?
T cruzi inh: 20; LANA-H2B inh: -1.7; Beta cell apopt: -6; ALR H2O2 inh: -5; A1 inh: 0.1; B2AR ag: 8; Calb FLC: 28

What do the screens show for `O=C(NCc1ccco1)c1cc(-c2ccccc2)nn1CC1CC(c2cccc([N+](=O)[O-])c2)=NO1` (centres undefined)?
Ecoli rRNA inh: 7; LANA-H2B inh: -0.7; Beta cell apopt: 5; ALR H2O2 inh: 7; A1 inh: 0.9; B2AR ag: -3; Ecoli rRNA inh OD600: 6; Ecoli rRNA inh RFP: -10.0

How did CCOC(=O)c1sc2nc(N3CCOCC3)c3c(c2c1N)CC(C)(C)N(C)C3 do in these assays?
T cruzi inh: 7; LANA-H2B inh: 4.9; Beta cell apopt: -8; ALR H2O2 inh: -14; A1 inh: 0.1; B2AR ag: 3; Calb FLC: 3

What do the screens show for `CC(=O)N1CCN(C(=S)Nc2ccc(SC(F)F)cc2)CC1`?
Ecoli rRNA inh: 1; T cruzi inh: -4; LANA-H2B inh: -1.6; Beta cell apopt: -26; ALR H2O2 inh: 17; A1 inh: -0.7; B2AR ag: 0; Calb FLC: 0; Ecoli rRNA inh OD600: 2; Ecoli rRNA inh RFP: -2.4

Results for O=C(NC1CC1)c1sc2cc(F)ccc2c1Cl ?
Ecoli rRNA inh: -8; LANA-H2B inh: -1.2; Beta cell apopt: 4; A1 inh: -9.7; B2AR ag: -4; Ecoli rRNA inh OD600: -9; Ecoli rRNA inh RFP: -3.7

What do the screens show for `O=C(CC12CC3CC(CC(C3)C1)C2)NCC(=O)N1CCCC1`?
T cruzi inh: -10; LANA-H2B inh: -0.2; ALR H2O2 inh: 0; A1 inh: 0.5; B2AR ag: 4; Calb FLC: 0

What do the screens show for `Nn1c(SCC(=O)Nc2ccc3c(c2)OCCO3)nnc1-c1cccnc1`?
T cruzi inh: -4; LANA-H2B inh: -6.2; Beta cell apopt: 0; ALR H2O2 inh: -12; A1 inh: 0.5; B2AR ag: -1; Calb FLC: -8

Results for O=C(Cn1[nH]c(=O)c2ccccc2c1=O)NCC1COc2ccccc2O1 (centres undefined) ?
Ecoli rRNA inh: 16; LANA-H2B inh: -1.8; Beta cell apopt: 4; ALR H2O2 inh: 2; A1 inh: -0.9; B2AR ag: 1; Ecoli rRNA inh OD600: 8; Ecoli rRNA inh RFP: 2.9

How did c1ccc(COc2ccc(OCCOCCn3cncn3)cc2)cc1 do in these assays?
T cruzi inh: -3; LANA-H2B inh: -1.8; Beta cell apopt: -1; ALR H2O2 inh: -10; A1 inh: -3.4; B2AR ag: 18; Calb FLC: 11

Results for NS(=O)(=O)c1ccc(Cc2ncc(C(F)(F)F)cc2Cl)s1 ?
T cruzi inh: 5; LANA-H2B inh: -2.1; Beta cell apopt: 1; A1 inh: 0.3; B2AR ag: -9; Calb FLC: 5

What do the screens show for `COc1ccccc1CNC(=O)[C@@H]1CCCN1C(=O)C1CCN(S(=O)(=O)c2ccc(C)cc2)CC1`?
T cruzi inh: -2; LANA-H2B inh: 2.8; Beta cell apopt: 4; ALR H2O2 inh: -15; A1 inh: 0.3; B2AR ag: -5; Calb FLC: -4

What do the screens show for `O=C(Cn1c(=O)n(-c2cccc(C(F)(F)F)c2)c(=O)c2sccc21)NCC1CCCO1` (centres undefined)?
Ecoli rRNA inh: 5; T cruzi inh: 0; LANA-H2B inh: -0.1; Beta cell apopt: 3; A1 inh: -0.1; B2AR ag: 2; Calb FLC: -1; Ecoli rRNA inh OD600: -1; Ecoli rRNA inh RFP: 0.5

What do the screens show for `C=CCn1c(Cc2cccs2)nnc1SCC(=O)Nc1cc(OC)cc(OC)c1`?
T cruzi inh: 2; LANA-H2B inh: -1.1; Beta cell apopt: -4; A1 inh: 0.0; B2AR ag: 4; Calb FLC: -2

Results for CC1CCCCC12NC(=O)N(CC(=O)NCC(=O)Nc1ccc(F)c(F)c1F)C2=O (centres undefined) ?
Ecoli rRNA inh: 5; LANA-H2B inh: 3.6; Beta cell apopt: 2; ALR H2O2 inh: -1; A1 inh: 1.3; B2AR ag: 3; Ecoli rRNA inh OD600: 8; Ecoli rRNA inh RFP: -0.4

What do the screens show for `COc1ccc(N2CCN(C(C)C(=O)Nc3nnc(C)s3)CC2)cc1` (centres undefined)?
Ecoli rRNA inh: 11; T cruzi inh: -19; LANA-H2B inh: 1.4; Beta cell apopt: 2; ALR H2O2 inh: inconclusive; A1 inh: 0.2; B2AR ag: -2; Calb FLC: -6; Ecoli rRNA inh OD600: 9; Ecoli rRNA inh RFP: -2.0

Results for Cc1nnc(Nc2ccc(Cl)cc2)s1 ?
Ecoli rRNA inh: -3; T cruzi inh: 16; LANA-H2B inh: -3.7; Beta cell apopt: 3; ALR H2O2 inh: -4; A1 inh: -0.4; B2AR ag: -3; Calb FLC: 1; Ecoli rRNA inh OD600: -17; Ecoli rRNA inh RFP: -2.7

How did CC1(C)C2CCC1(CS(=O)(=O)NC(CC(=O)O)c1cccc(Br)c1)C(=O)C2 (centres undefined) do in these assays?
Ecoli rRNA inh: 6; T cruzi inh: -9; LANA-H2B inh: 2.2; Beta cell apopt: -3; ALR H2O2 inh: 14; A1 inh: -0.4; B2AR ag: -2; Calb FLC: 0; Ecoli rRNA inh OD600: 3; Ecoli rRNA inh RFP: 0.5

Results for CC(NC(=O)COC(=O)CNC(=O)c1ccc(-c2ccccc2)cc1)c1ccccc1 (centres undefined) ?
Ecoli rRNA inh: -4; T cruzi inh: -8; LANA-H2B inh: 1.1; Beta cell apopt: -6; ALR H2O2 inh: -1; A1 inh: -0.6; B2AR ag: -9; Calb FLC: 1; Ecoli rRNA inh OD600: 3; Ecoli rRNA inh RFP: -3.5

Results for O=C(Cn1cc(C(=O)c2ccco2)c2ccccc21)Nc1ccccc1F ?
Ecoli rRNA inh: -22*; T cruzi inh: -23; LANA-H2B inh: -1.2; Beta cell apopt: -3; ALR H2O2 inh: -21; A1 inh: -1.0; B2AR ag: -8; Calb FLC: inconclusive; Ecoli rRNA inh OD600: -15*; Ecoli rRNA inh RFP: 3.5*

What do the screens show for `CCN1C(=O)/C(=C\c2nc3ccccc3c(=O)n2CC)c2ccccc21`?
Ecoli rRNA inh: -7; T cruzi inh: 3; LANA-H2B inh: -6.2; Beta cell apopt: 10; ALR H2O2 inh: 5; A1 inh: -0.7; B2AR ag: 2; Calb FLC: 6; Ecoli rRNA inh OD600: -12; Ecoli rRNA inh RFP: -0.8

How did Cc1ccc(Oc2ncc(CN3CCOCC3)s2)cc1 do in these assays?
T cruzi inh: -12; LANA-H2B inh: 2.7; Beta cell apopt: 4; ALR H2O2 inh: 4; A1 inh: 0.0; B2AR ag: -6; Calb FLC: 7

What do the screens show for `Cc1ccc2c(c1)N(CC(=O)NCCCN1CCN(C)CC1)C(=O)CO2`?
Ecoli rRNA inh: 3; T cruzi inh: 9; LANA-H2B inh: -8.1; Beta cell apopt: -1; ALR H2O2 inh: -4; A1 inh: -1.3; B2AR ag: -2; Calb FLC: 38; Ecoli rRNA inh OD600: 4; Ecoli rRNA inh RFP: 0.0

Results for CN(C)/C=C(/C(=O)c1ccc(Cl)cc1Cl)S(=O)(=O)c1ccc(Cl)cc1 ?
T cruzi inh: -12; LANA-H2B inh: -4.3; Beta cell apopt: 2; ALR H2O2 inh: 24; A1 inh: -0.3; B2AR ag: 1; Calb FLC: 29

Results for O=C(NN=C1CCC(c2ccccc2)CC1)c1cc2c(s1)CCCC2 (centres undefined) ?
Ecoli rRNA inh: 9; T cruzi inh: -2; LANA-H2B inh: -2.9; Beta cell apopt: -6; ALR H2O2 inh: 2; A1 inh: 0.0; B2AR ag: 1; Calb FLC: 3; Ecoli rRNA inh OD600: -2; Ecoli rRNA inh RFP: 2.8

Results for Cc1cc(C)nc(/N=C(\N)Nc2ccc(C(C)C)cc2)n1 ?
T cruzi inh: -11; LANA-H2B inh: 1.0; Beta cell apopt: 42; ALR H2O2 inh: -6; A1 inh: 1.2; B2AR ag: -9; Calb FLC: -6

From PubChem
